Screening data from PubChem BioAssay.
RGS16-Gao – RGS16-Galphao interaction regulator (human); O15492+P09471; bead-based flow cytometry RGS16-Galphao binding, fluorescence; actives lie on both sides; binding response (% of control), % at 10 µM; actives 0.38% (n = 220,000);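 active = below 25% or above 175%, edge rows of some plates excepted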;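 note: Galphao activated by GDP with aluminum fluoride before binding; 100% = wells without compound and 0% = beads without RGS; some results beyond the cut were filed as inactive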
Target sequence (O15492 whole entry, looked up): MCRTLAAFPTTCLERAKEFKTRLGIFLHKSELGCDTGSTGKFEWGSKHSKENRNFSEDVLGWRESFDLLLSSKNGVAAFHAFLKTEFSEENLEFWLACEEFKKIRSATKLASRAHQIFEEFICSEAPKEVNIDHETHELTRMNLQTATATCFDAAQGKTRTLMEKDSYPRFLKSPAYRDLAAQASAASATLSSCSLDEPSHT
Target sequence (P09471 whole entry, looked up): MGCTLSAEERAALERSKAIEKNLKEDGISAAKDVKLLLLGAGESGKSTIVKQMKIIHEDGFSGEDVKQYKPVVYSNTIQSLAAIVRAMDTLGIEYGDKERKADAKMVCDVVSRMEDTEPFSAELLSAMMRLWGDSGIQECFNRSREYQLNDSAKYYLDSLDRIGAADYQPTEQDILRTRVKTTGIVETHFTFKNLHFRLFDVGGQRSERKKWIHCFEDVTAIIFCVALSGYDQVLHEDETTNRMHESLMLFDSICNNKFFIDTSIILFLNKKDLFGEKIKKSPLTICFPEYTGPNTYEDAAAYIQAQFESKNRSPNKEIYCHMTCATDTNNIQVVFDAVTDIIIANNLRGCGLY
PKD1 kinase inh – PKD1 (human) kinase inhibition | AID 797 | inhibition, %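 (about 10 µM by stock and volumes)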 | actives 0.056% (n = 200,000) | PKD1 kinase fluorescence polarization assay | Q15139;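 active = inhibition of 50% or more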;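 note: controls were vehicle for no effect and a reference inhibitor for full effect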
HSV replic up – HSV replication enhancement; HSV replication augmentation in cells, fold increase; actives 0.005% (n = 220,000); maximum fold increase;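 active = peak rise of 1.5-fold or more in the series; tested in PC3 cells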;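 note: first round at 10 µM; read as green reporter fluorescence; hits show the peak of a series up to 25 µM; 1 = signal of infected wells without compound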
Insulin prom inh – TRM-6 insulin promoter activity inhibition. TRM-6 cells (human fetal islet line), insulin promoter-eGFP reporter, imaging; reporter expression induced with tamoxifen. inhibition, % at 2 µM. actives 0.9% (n = 130,000). AID 1273;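 active = inhibition above the mean plus 3 SD, with well images judged a real hit on visual review, cut at about 60% in these data, passing the limit was not always enough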
GALR2 agonist – GALR2 (human) receptor agonism | O43603 | GALR2-expressing cells, agonist activation read-out | activation, %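 (tested at 5 µM)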 | actives 0.48% (n = 140,000);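 active = above mean plus 3 SD of all compounds, about 5% in these data, not always enough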;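 note: 0% = vehicle buffer wells and 100% = reference agonist at full effect; tested in CHO reporter cells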
Target sequence (O43603 whole entry, looked up): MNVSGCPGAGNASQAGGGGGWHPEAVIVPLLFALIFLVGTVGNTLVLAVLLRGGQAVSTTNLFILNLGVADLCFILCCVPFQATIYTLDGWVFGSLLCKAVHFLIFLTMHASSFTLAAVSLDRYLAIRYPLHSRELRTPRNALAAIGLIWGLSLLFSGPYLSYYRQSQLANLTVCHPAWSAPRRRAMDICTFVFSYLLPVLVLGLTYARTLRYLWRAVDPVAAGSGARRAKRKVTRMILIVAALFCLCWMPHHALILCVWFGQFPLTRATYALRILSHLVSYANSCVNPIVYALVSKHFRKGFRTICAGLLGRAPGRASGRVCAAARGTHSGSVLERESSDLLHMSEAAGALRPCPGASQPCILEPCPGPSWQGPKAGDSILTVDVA
Insulin prom inh cell count – second read-out of Insulin prom inh, no call of its own (marks repeat the call); normalized cell count, %; measured here: cell count, toxicity; reference of the scale not given here;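 cells exposed to compound for 48 h; stained nuclei by imaging scaled within each plate; lower means fewer cells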
HSV replic up primary fold – also measured in HSV replic up; calls as there; fold increase; compound at 10 µM; measured here: primary screen fold increase 10 uM; tested in PC3 cells;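 GFP signal in the first replicate; 1 = infected wells without compound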
Starred values were filed as active, the others as inactive; i = inactive; x = not tested or not shown. An unsorted share of the library. Share with any hit: about 1.2%.

Structure	HSV replic up primary fold	Insulin prom inh	RGS16-Gao	HSV replic up	PKD1 kinase inh	Insulin prom inh cell count	GALR2 agonist
CCc1cc2cc(C)cc(C)c2nc1SCC(=O)Nc1cc(C)on1	0.82	-118	100	i	-6	98	x
Cc1sc2ncnc(SCC(=O)N3CCCC3)c2c1C	0.93	-8	102	i	-6	137	0.7
COc1ccc(/C=C/C(=O)N2CCN(c3ccccn3)CC2)c2ccccc12	1	-28	108	i	-3	97	x
Cn1nc(C(=O)NC2CCCCC2)c2ccccc2c1=O	0.9	x	106	i	-11	x	-1.4
CCOC(=O)N1CCc2c(sc(NC(C)=O)c2C(N)=O)C1	0.97	x	x	i	0	x	-0.3
Cc1sc2nc(COC(=O)c3cccc(OC(F)F)c3)[nH]c(=O)c2c1C	0.8	x	74	i	x	x	x
CCOc1ccc(N2C(=O)CC(/C=C3/N(C)c4ccccc4C3(C)C)C2=O)cc1 (stereo not drawn)	x	44	98	x	-7	61	-2.5
O=C(CSc1nnc2ccccn12)Nc1ccc2c(c1)OCCO2	0.81	x	99	i	2	x	x
Cc1ccc(NC(=O)CCC(=O)N/N=C/C=C/c2ccccc2)cc1	0.82	-69	96	i	-5	161	-0.3
COc1cc(O)c2c(=O)c3c(OC)c(O)ccc3oc2c1	0.8	33	93	i	-1	110	-0.7
CCOc1ccccc1-n1c(SCC(=O)N(CC)CC)nnc1-c1ccccn1	0.83	x	218	i	-6	x	-1.7
Nc1nn2cc(-c3ccccc3)nc2c2ccccc12	0.99	x	96	i	-2	x	x
N#C/C(=C\c1ccc([N+](=O)[O-])cc1)C(=O)Nc1ccccc1O	0.92	-50	94	i	-2	153	0.0
Cc1ccc(Oc2ccc(NC(=O)c3ccco3)cc2)cc1	0.73	x	101	i	1	x	-0.7
COc1cccc(Nc2nc(-c3sc(NC(=O)CC(C)C)nc3C)cs2)c1	0.9	-4	105	i	13	103	-0.2
Cc1ccc(SCc2cc(=O)[nH]c(N3CCN(Cc4ccccc4)CC3)n2)cc1	0.82	39	106	i	5	82	0.6
N#C/C(=C\c1ccc(-c2ccc([N+](=O)[O-])cc2)o1)C(=O)Nc1nc(-c2cccs2)cs1	0.96	x	102	i	x	x	x
CCc1ccc(C2CC(c3ccccc3Cl)Nc3nc(N)nn32)cc1 (stereo not drawn)	1	x	105	i	-2	x	0.6
COC(=O)[C@@H]1CC[C@H](C)[C@@H](c2ccc(C)cc2)N1C(=O)c1ccc(/C=N/O[C@@H](C)c2cn([C@H](CO)Cc3ccccc3)nn2)cc1	x	5	106	x	10	93	-1.2
COc1ccc(C(=O)N/C(=C\c2ccc3c(c2)OCO3)C(=O)Nc2ccc(C(=O)O)cc2)cc1	0.92	19	104	i	-3	91	x

Continuation:
Structure	HSV replic up primary fold	Insulin prom inh	RGS16-Gao	HSV replic up	PKD1 kinase inh	Insulin prom inh cell count	GALR2 agonist
Cc1c(CCO)c(=O)[nH]n1S(=O)(=O)c1ccccc1	0.97	x	94	i	-5	x	x
CCOc1cc(N2CCOCC2)c(OCC)cc1NC(=O)CN1CCCC1	0.99	x	105	i	2	x	-0.8
CC(C)C1Nc2c(O)cc(Cl)c([N+](=O)[O-])c2C2C=CCC21 (stereo not drawn)	0.88	43	107	i	1	77	x
Cn1c(-c2ccco2)n[nH]c1=S	0.98	-18	110	i	0	125	x
Cc1cn(C)c(=O)n(C)c1=O	1	x	104	i	1	x	x
O=C(O)c1ccccc1-c1ccccc1C(=O)NCCCO	0.85	39	100	i	5	99	-0.4
O=C(COc1ccc(C2SCCS2)cc1)Nc1ccc(Cl)cc1	0.89	x	99	i	x	x	x
c1csc(C2CCCN2c2nc3nonc3nc2NC2CC2)n1 (stereo not drawn)	1	0	103	i	-6	107	x
O=C(CSc1nc(O)cc(=O)n1-c1ccccc1)Nc1ccc2c3c(cccc13)CC2	0.99	-42	108	i	2	101	-0.3
COc1ccccc1OCCNC(=O)c1cccs1	0.89	3	103	i	-4	180	-1.9
Cc1c(NC2=NC(C)(C)Cc3ccccc32)c(=O)n(-c2ccccc2)n1C	0.9	19	106	i	0	94	-1.7
CC(=O)Nc1ccc2nc(CN3CCN(Cc4ccc(F)cc4)C(CCO)C3)ccc2c1 (stereo not drawn)	0.96	x	108	i	-11	x	x
N/C(=N\OC(=O)c1ccc(Cl)cc1)c1ccccn1	0.9	x	105	i	-2	x	-2.0
CC1(C)CC(=O)C2=C(C1)N(Cc1ccc(F)cc1)C(=O)C2(NC(=O)c1cccnc1)C(F)(F)F (stereo not drawn)	0.96	-43	113	i	2	125	-0.8
CCOC(=O)N1CCN(S(=O)(=O)c2ccc(C(=O)Nc3nc4c(s3)CC(C)CC4)cc2)CC1 (stereo not drawn)	x	x	76	x	-1	x	-2.4
CCOC(=O)N1CCN(CC(O)c2ccccc2)CC1 (stereo not drawn)	1.1	x	102	i	1	x	x
COC(=O)c1sccc1NC(=O)c1c(C)cc(=O)oc1C	0.98	x	99	i	-9	x	-2.6
O=C(Nc1cnc2ccccc2c1)c1ccncc1	0.83	x	103	i	-12	x	-2.3
CC1CCN(c2ccc(C(=O)NCc3ccco3)cc2[N+](=O)[O-])CC1	0.94	18	143	i	-1	42	-1.1
COc1ccc(CNC(=O)COC(=O)c2cccnc2Nc2cccc(C(F)(F)F)c2)cc1	1.1	-20	95	i	1	84	-0.1

Four structures already listed, arranged by number of heavy atoms, lowest first.
Structure	HSV replic up primary fold	Insulin prom inh	RGS16-Gao	HSV replic up	PKD1 kinase inh	Insulin prom inh cell count	GALR2 agonist
COC(=O)c1sccc1NC(=O)c1c(C)cc(=O)oc1C	0.98	x	99	i	-9	x	-2.6
O=C(COc1ccc(C2SCCS2)cc1)Nc1ccc(Cl)cc1	0.89	x	99	i	x	x	x
Cc1c(NC2=NC(C)(C)Cc3ccccc32)c(=O)n(-c2ccccc2)n1C	0.9	19	106	i	0	94	-1.7
CC1(C)CC(=O)C2=C(C1)N(Cc1ccc(F)cc1)C(=O)C2(NC(=O)c1cccnc1)C(F)(F)F (stereo not drawn)	0.96	-43	113	i	2	125	-0.8

New compounds follow
Structure	HSV replic up primary fold	Insulin prom inh	RGS16-Gao	HSV replic up	PKD1 kinase inh	Insulin prom inh cell count	GALR2 agonist
O=C(c1ccco1)N1CCN(C(=O)C2CCN(S(=O)(=O)c3cccc4nsnc34)CC2)CC1	1.1	-60	x	i	5	22	-1.9
CN(C)/C=C1/C(=O)N(c2ccc([N+](=O)[O-])cc2)N=C1c1ccccc1	0.88	21	127	i	2	111	-1.4
COc1ccccc1N1CCN(C(=O)c2c(C)noc2C)CC1	1	x	105	i	x	x	x
CCc1ccccc1NC(=O)c1cc(-c2ccc(F)cc2)on1	0.98	x	102	i	-4	x	x
CCOCCCNC(=O)c1ccc(CS(=O)(=O)Cc2ccccc2F)o1	0.98	31	97	i	2	93	-1.1
CCOc1cc(CO)cc(Br)c1OCC(=O)O	0.86	-19	x	i	-6	76	-0.5
CC1CCN(c2ccc(NC(=O)c3cccnc3)cc2)CC1	0.95	-425	102	i	-7	58	-0.1
CC1CCN(C(c2cc3cc4c(cc3[nH]c2=O)OCO4)c2nnnn2CC2CCCO2)CC1 (stereo not drawn)	1.1	x	111	i	-12	x	-0.4
CC1CCCN(C2=C(NS(=O)(=O)c3ccc(Cl)cc3)C(=O)c3ccccc3C2=O)C1 (stereo not drawn)	0.98	-2	4	i	-2	55	0.2
Cc1ccc(C(=O)Nc2ccc([N+](=O)[O-])cn2)o1	1	17	99	i	-7	141	-0.8
Cc1ccccc1NC1=NCC(c2ccc([N+](=O)[O-])cc2)S1 (stereo not drawn)	1.2	x	92	i	5	x	x
CCOC(=O)c1c(NC(=O)Nc2ccc(C)cc2)sc2c1CCN(C)C2	0.8	x	103	i	x	x	x
Cc1cc2cc(CNS(=O)(=O)N(C)C)ccc2[nH]1	0.71	x	104	i	1	x	-1.1
COc1ccc(NC(=O)C2CCN(S(C)(=O)=O)CC2)cc1Cl	0.72	12	105	i	0	87	-1.2
COc1ccc2nc(N3C(=O)CC(Cc4ccc(C)cc4)C3=O)sc2c1 (stereo not drawn)	0.94	-22	99	i	-9	109	-0.6
CCOc1ccc(NC(=O)CSc2nc3ccccc3c(=O)n2CCNC(C)=O)cc1	0.9	x	106	i	-3	x	-1.2
CCOc1ccc(C(=O)Oc2ccc(NC(C)=O)cc2)cc1	0.96	x	107	i	-1	x	x
O=C(CSc1nnc(-c2ccncc2)n1-c1ccccc1)N1CCN(c2ccc(Cl)cc2)CC1	x	37	103	x	-3	55	-4.5
O=C(Nc1ccccc1)N1CCN(Cc2ccc(Cl)cc2)CC1	0.96	x	97	i	-2	x	x
Cc1ccc(N=Cc2sc(O)c3ccccc23)cc1	0.98	-38	104	i	1	51	-1.9

Later entries:
Structure	HSV replic up primary fold	Insulin prom inh	RGS16-Gao	HSV replic up	PKD1 kinase inh	Insulin prom inh cell count	GALR2 agonist
O=C(CN1C(=O)c2ccccc2C1=O)N1CCN(C2c3ccccc3-c3ccccc32)CC1	1	-14	117	i	-7	62	-1.2
O=C(NNc1ccccc1)C(=O)N1CCCCC1	1.1	x	103	i	6	x	-1.0
CCOC(=O)c1ccc(Oc2nc(NC)nc(Nc3ccccc3)n2)cc1	0.9	8	108	i	-1	128	-0.1
COc1ccc(-c2nn(CC(=O)N(C)C)c(=O)c3ccccc23)cc1	0.97	x	97	i	-7	x	-2.1
COc1cc([N+](=O)[O-])ccc1NC(=O)Cc1ccccc1	1.1	21	107	i	0	95	x
O=C(Nc1ccccc1C(=O)N1CCOCC1)C1CCCO1 (stereo not drawn)	0.97	-11	99	i	-16	43	-0.7
CSc1n[nH]c(=O)n1-c1ccc(Cl)cc1	1.1	x	95	i	x	x	x
NS(=O)(=O)c1ccc(CCNC(=O)c2cc(-c3ccc(Br)cc3)nc3ccccc23)cc1	1	-6	94	i	2	65	x
CN(C)CCOC(=O)/C(=C/c1cn(C)c2ccccc12)NC(=O)c1ccccc1	0.96	x	103	i	x	x	x
CCOC(=O)c1ccc(OCc2nc(-c3cccs3)no2)cc1	1	-29	107	i	-7	77	-0.1
CCOC(=O)c1c(NC(=O)C2=C(C)NC(=S)NC2c2ccc(F)cc2)sc(C)c1C (stereo not drawn)	0.86	-13	95	i	4	143	0.5
O=C1CN(c2cc(Cl)cc(Cl)c2)C(=O)CN1/N=C/c1cccnc1	0.73	x	104	i	x	x	x
CCN(CC(=O)Nc1ccc([N+](=O)[O-])cc1OC)CC(=O)NC(C)(C)C	1	-26	119	i	-2	55	0.3
COc1ccc(CC(=O)N2CCN=C2SCc2ccc([N+](=O)[O-])cc2)cc1	0.94	x	99	i	4	x	x
COc1ccc(C2=NOC(C(=O)NCc3ccccn3)C2)cc1OC (stereo not drawn)	1.1	16	96	i	1	183	-0.5
COc1cc(N2C(=O)c3ccccc3C2=O)c(Cl)cc1C(=O)OCC(=O)N1CCOCC1	1	x	100	i	-2	x	x
Cn1c(=O)[nH]c(=O)c2c1nc(N1CCCCC1)n2CCOc1ccccc1	0.95	-46	74	i	-9	68	3.0
Cc1ccc(N2CCN(S(=O)(=O)N3CCCCC3)CC2)c(C)c1	0.81	x	137	i	-2	x	x
CSc1ccccc1C(=O)NCc1ccc(S(N)(=O)=O)cc1	0.92	26	95	i	-2	76	-1.0
CCCc1cc(C(=O)N2CCN(S(=O)(=O)c3ccc(OC)c(OC)c3)CC2)cs1	0.9	-8	99	i	-2	85	-0.2

Additional entries follow.
Structure	HSV replic up primary fold	Insulin prom inh	RGS16-Gao	HSV replic up	PKD1 kinase inh	Insulin prom inh cell count	GALR2 agonist
Cc1[nH]c2ccccc2c1C(c1ccccn1)N1CCC(C(N)=O)CC1 (stereo not drawn)	1.1	-15	106	i	-4	107	-0.9
COc1ccc(C(=O)/C=C2\Sc3ccccc3N2C)cc1	0.98	x	100	i	-5	x	x
COc1ccc(CC(=O)OC2CCCN(C)C2)cc1 (stereo not drawn)	0.97	x	102	i	0	x	x
O=c1c2c(-c3cccs3)csc2[nH]c(=S)n1-c1ccccc1	0.93	11	92	i	-6	67	-0.8
O=C(COc1ccccc1)NC1CCCc2ccccc21 (stereo not drawn)	1	14	99	i	-19	84	-0.7
O=C(N/N=C/c1ccc(-c2ccccc2)o1)c1ccccc1O	0.82	x	129	i	x	x	x
C=CCc1c(C)nc(C)nc1N/N=C/c1ccc(F)cc1	0.91	-11	100	i	2	84	-1.5
CCCCOc1nc2ccccc2nc1C(C#N)S(=O)(=O)c1ccccc1 (stereo not drawn)	0.88	x	104	i	2	x	0.0
